D2 PAM: D2 dopamine receptor (human) potentiation; HEK293 T-REx D2, calcium flux, EC20 dopamine potentiation; potentiation, % at 10 µM; hit rate 0.34% among 340,000; P14416;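 active = potentiation over 3 SD above the plate norm, cut at about 30% in these data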; also: 0% is about no effect
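Primary screen. Calcium kinetics in induced HEK293 T-REx D2 cells: compound pre-addition 180 s, EC20 dopamine, 180 s more.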
RXFP1 agonist: RXFP1 (human) receptor agonism | Q9HBX9 | HEK293T-RXFP1 cAMP TR-FRET, 30 min; response scale: percent of porcine relaxin response, buffer zero | Potency, µM (titrated, usually from 57.5 µM), without a hit: top-dose activation, most hits filed as activators | hit rate 0.3% among 370,000 | AID 2676; also: potency is read from the fitted curve at half-maximal effect; % is scaled to controls: 0 for no effect and ±100 for the full control effect; nearly all actives have a fitted effect of over 60% in size; many of its hits are not listed in these tables
Target sequence (Q9HBX9 whole entry, looked up): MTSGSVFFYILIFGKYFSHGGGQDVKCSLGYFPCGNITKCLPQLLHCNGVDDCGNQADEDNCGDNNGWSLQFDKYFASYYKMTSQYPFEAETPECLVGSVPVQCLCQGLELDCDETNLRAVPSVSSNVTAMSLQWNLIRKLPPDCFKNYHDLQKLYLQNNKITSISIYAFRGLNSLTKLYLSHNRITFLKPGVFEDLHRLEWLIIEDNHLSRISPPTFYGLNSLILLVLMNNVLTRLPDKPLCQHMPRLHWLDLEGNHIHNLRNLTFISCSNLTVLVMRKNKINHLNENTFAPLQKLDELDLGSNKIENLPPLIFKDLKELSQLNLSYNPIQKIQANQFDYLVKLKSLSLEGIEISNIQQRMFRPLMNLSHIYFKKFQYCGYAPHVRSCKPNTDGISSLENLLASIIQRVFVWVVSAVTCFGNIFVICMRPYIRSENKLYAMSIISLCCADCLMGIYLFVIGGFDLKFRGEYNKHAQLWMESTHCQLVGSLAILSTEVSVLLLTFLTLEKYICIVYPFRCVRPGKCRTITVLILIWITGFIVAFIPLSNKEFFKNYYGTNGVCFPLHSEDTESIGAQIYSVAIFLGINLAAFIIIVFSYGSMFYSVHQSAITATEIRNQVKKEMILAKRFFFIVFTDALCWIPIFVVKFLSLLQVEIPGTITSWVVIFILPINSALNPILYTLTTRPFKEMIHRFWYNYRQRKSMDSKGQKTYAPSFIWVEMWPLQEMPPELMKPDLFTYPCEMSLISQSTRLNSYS
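HEK293 cells stably expressing RXFP1, treated 30 min at 37C with compounds plus PDE4 inhibitor Ro 20174; cAMP measured by HTRF TR-FRET. Normalized to buffer and 29 nM porcine relaxin; EC50 by Hill fit.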
RXFP1 antag: blocks the human relaxin receptor RXFP1; activity change, negative = inhibition, % at 57.5 µM; HEK293-RXFP1, relaxin-stimulated cAMP HTRF, 30 min; hits give low values; hit rate 0.59% among 350,000; Q9HBX9;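 active = activity change of -60% or lower, but not beyond a set lower limit; inconclusive = change between -60% and -40%, or beyond the set limit; inactive = change above -40%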; also: % is scaled to controls: 0 for no effect and ±100 for the full control effect
Vif-APOBEC3F blk: inhibitors of Vif-A3F interaction; HeLa A3F-eYFP + Vif (tagged APOBEC3F with the HIV-1 protein that degrades it), YFP fluorescence increase; Potency, µM (top dose mostly 46.1 µM), for inactives: at the top dose activity, negative = active; hit rate 0.2% among 390,000; AID 602313; also: potency is read from the fitted curve at half-maximal effect; % of control where 0% means no effect; nearly all actives have a fitted effect of over 65% in size
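HeLa cells stably expressing Vif plus C-terminally eYFP-tagged A3F were seeded, incubated overnight at 37 deg C, dosed with compound, incubated overnight again at 37 deg C. Yellow fluorescence (Ex 488/Em 500-530) reported blocked Vif-mediated A3F-eYFP degradation.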
Vif-A3G inh: blocks the Vif interaction with human APOBEC3G | Potency, µM (top dose mostly 46.1 µM), without a hit: at the top dose activity, negative = active, most hits filed as inhibitors | HeLa A3G-eYFP + Vif (tagged APOBEC3G with the HIV-1 protein that degrades it), YFP fluorescence, overnight | hit rate 0.076% among 410,000;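 also: potency is read from the fitted curve at half-maximal effect; % is scaled to controls: 0 for no effect and ±100 for the full control effect; nearly all actives have a fitted effect of over 60% in size; hits raise eYFP signal because A3G escapes Vif-driven loss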
Target sequence (Q9HC16 whole entry, looked up): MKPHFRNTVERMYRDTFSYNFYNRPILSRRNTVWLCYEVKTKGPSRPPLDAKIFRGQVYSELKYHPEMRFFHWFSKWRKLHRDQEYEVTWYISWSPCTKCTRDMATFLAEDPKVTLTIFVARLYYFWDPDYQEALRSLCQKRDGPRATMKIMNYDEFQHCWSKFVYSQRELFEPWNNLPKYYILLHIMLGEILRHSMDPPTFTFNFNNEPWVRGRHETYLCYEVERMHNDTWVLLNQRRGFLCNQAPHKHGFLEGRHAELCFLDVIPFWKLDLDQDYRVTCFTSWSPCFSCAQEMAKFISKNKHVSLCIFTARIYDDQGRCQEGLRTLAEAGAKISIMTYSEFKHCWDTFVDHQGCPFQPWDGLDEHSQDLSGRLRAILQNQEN
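Read-out is eYFP fluorescence (Ex 488/Em 500-530) from Vif-expressing HeLa A3G-eYFP cells; more signal means A3G escaped Vif-mediated degradation. Cells plated overnight, compound pinned in, incubated overnight at 37 deg C.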
GRP78 ERSR act: ER stress response induction in glioma. U87-MG GRP78 promoter luciferase reporter, 16 h. Potency, µM, inactives show top-dose activation, hits mostly activators. hit rate 0.02% among 420,000. AID 602332; also: potency is read from the fitted curve at half-maximal effect; series mostly up to about 76 µM; % of control where 0% means no effect; nearly all actives have a fitted effect of over 35% in size
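Stably transfected U87-MG human glioma cells carrying a GRP78-based luminescent sensor were seeded at 1000 cells/well, pin-dosed with compounds and incubated 16 h. Luciferase reagent was then added, and end-point luminescence was read after 10 min at room temperature.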
* hit, by the source's call; ? = inconclusive; / = not tested or not shown; & = joins results of further samples. Unless noted, calls follow the shape of the dose curve; as a rule, active = well fitted curve in the direction sought with a large enough effect; inconclusive = small, poorly fitted or top-dose-only effect, or another doubt; inactive = no such curve, though single readings can be large; an effect the other way counts as inactive or inconclusive.

Order of values – D2 PAM, RXFP1 agonist, RXFP1 antag, Vif-APOBEC3F blk, Vif-A3G inh, GRP78 ERSR act
NC(=O)NO
→ 14, 0.1%, 3, -1%, 0%, -4%&-1%&-6%
CC(=O)[C@@H]1CC[C@@H]2[C@@H]3CCC4=CC(=O)CC[C@@]4(C)[C@H]3CC[C@]21C
→ /, /, /, /, /, -5%
O=C(O)CC(O)C(=O)O (stereo unspecified)
→ -15, 2.2%, 6&8, -1%, -1%, -2%&-3%
CC1CCc2cc(F)cc3c(=O)c(C(=O)O)cn1c23 (stereo unspecified)
→ 5, -2.8%, -9, 2%, 2%, -1%&-4%
CC1(C)SC2C(NC(=O)C(NC(=O)N3CCNC3=O)c3ccccc3)C(=O)N2C1C(=O)O (stereo unspecified)
→ /, /, /, /, /, -2%
NCCNCCNCCN
→ 8, -0.4%, 10, 7%, 3%, -1%&-1%
NC12CC3CC(CC(C3)C1)C2
→ 21, 2.7%, -14, -6%, 2%, -2%&-2%&-4%&1%&-3%&-5%
CC(C)(C)C(=O)OCOC(=O)[C@@H]1N2C(=O)[C@@H](N=CN3CCCCCC3)[C@H]2SC1(C)C
→ 11, -1.2%, /, -3%, 4%, -1%&-5%
CN1C(C(=O)Nc2ccccn2)=C(O)c2sccc2S1(=O)=O
→ 3, 3.9%, -10, -2%, -3%, -1%&-6%&-3%
CN1CCN(CC/C=C2/c3ccccc3Sc3ccc(S(=O)(=O)N(C)C)cc32)CC1
→ -23, 2.4%, /, -21%, -6%, 0%
C=CCOc1ccccc1OC[C@H](O)CNC(C)C
→ /, /, /, /, /, -5%
COC(=O)[C@H]1[C@H]2C[C@H]3c4[nH]c5ccccc5c4CCN3C[C@@H]2CC[C@@H]1O
→ -17&-20, 1.1%&0.0%, /, -20%&0%, -13%&-6%, -1%&-2%
CC[C@]1(c2ccccc2)NC(=O)N(C)C1=O
→ /, /, /, /, /, -3%
C[C@@H](CN(C)C)CN1c2ccccc2Sc2ccccc21
→ /, /, -9, /, /, -2%
CCCCN(CCCC)CCC(O)c1cc2c(Cl)cc(Cl)cc2c2cc(C(F)(F)F)ccc12 (stereo unspecified)
→ -5, -1.9%, 4, -16%, 1%, -2%&-5%
COc1ccc2cc([C@@H](C)C(=O)O)ccc2c1
→ 14, 2.7%, /, -10%, -3%, 0%
C[C@@H]1C[C@H]2[C@@H]3CCC4=CC(=O)C=C[C@]4(C)[C@@]3(F)[C@@H](O)C[C@]2(C)[C@@]1(O)C(=O)COP(=O)(O)O
→ /, -1.3%&4.0%, /, 4%, 0%, -2%
CCc1nn(CCCN2CCN(c3cccc(Cl)c3)CC2)c(=O)n1CCOc1ccccc1
→ -22&-25, 2.4%&2.3%, -21, 10%&-1%, -1%&-6%, -4%&-2%&-4%&-9%
CC(=O)C[C@H](c1ccccc1)c1c(O)c2ccccc2oc1=O
→ /, /, /, /, /, -7%
CCOC(=O)OC(C)OC(=O)[C@@H]1N2C(=O)[C@@H](NC(=O)[C@H](N)c3ccccc3)[C@H]2SC1(C)C (stereo partly specified)
→ 5, 0.7%, -6, 0%, -4%, 4%
Cc1ccc2c(c1)c1c3n2CCN[C@H]3CCC1
→ /, /, /, /, /, -3%&-3%
COc1ccc2c(c1)c(CC(=O)O)c(C)n2C(=O)c1ccc(Cl)cc1
→ -11, -2.3%, -27, 0%, -1%, ?
O=c1[nH]c(=O)n([C@@H]2C[C@H](O)[C@H](CO)O2)cc1C(F)(F)F
→ /, /, /, /, /, -3%
CC[C@H](CO)NCCN[C@@H](CC)CO
→ /, /, /, /, /, -4%
CCCCC[C@H](O)/C=C/[C@@H]1[C@@H](C/C=C\CCCC(=O)O)[C@H](O)C[C@H]1O
→ /, /, /, /, /, -3%
CC[N+](CC)(CC)CCC(O)(c1ccccc1)C1CCCCC1 (stereo unspecified)
→ -4, 0.7%, /, -2%, 1%, -3%
N[C@H](Cc1cc(I)c(Oc2ccc(O)c(I)c2)c(I)c1)C(=O)O
→ /, /, /, /, /, -3%
c1ccc2c(c1)CCC[C@@H]2C1=NCCN1
→ /, /, /, /, /, -4%
CC[N+](CC)(CC)CCOc1cccc(OCC[N+](CC)(CC)CC)c1OCC[N+](CC)(CC)CC
→ 7, 0.8%, -10, -5%, 2%, -6%&-3%&-4%&-6%
CCCCC[C@H](O)/C=C/[C@@H]1[C@H](C/C=C\CCCC(=O)O)[C@@H](O)C[C@H]1O
→ /, /, /, /, /, -4%
O=CC(O)C1OC(=O)C(O)C1O (stereo unspecified)
→ /, /, /, -5%, 1%, 0%
CC[C@@]1(c2ccccc2)NC(=O)N(C)C1=O
→ /, /, 12, /, /, -3%
CC1(C)S[C@@H]2[C@H](NC(=O)C(NC(=O)N3CCNC3=O)c3ccccc3)C(=O)N2[C@H]1C(=O)O (stereo partly specified)
→ -2, 0.0%, 6, 17%, 2%, -2%
NCC1O[C@@H](O[C@H]2C(O)C(O[C@@H]3C(O[C@H]4OC(CO)C(O)C(O)C4N)C(N)CC(N)[C@H]3O)O[C@@H]2CO)C(N)C(O)C1O (stereo partly specified)
→ /, /, /, /, /, -4%
O=C(O)CCC(=O)C(=O)O (tested in a mixture with another compound)
→ /, /, /, /, /, -4%
C[C@H]1O[C@@H](O[C@H]2[C@@H](O)C[C@H](O[C@H]3[C@@H](O)C[C@H](O[C@H]4CC[C@@]5(C)[C@H](CC[C@@H]6[C@@H]5C[C@@H](O)[C@]5(C)[C@@H](C7=CC(=O)OC7)CC[C@]65O)C4)O[C@@H]3C)O[C@@H]2C)C[C@H](O)[C@@H]1O
→ -1&2, 1.7%&3.3%, /, 0%, -11%, -7%&-7%&-4%
CN1CCC(=C2c3ccccc3C=Cc3ccccc32)CC1
→ -28, 0.9%, 15, -1%, -1%, 3%&-1%&-5%&-5%&-12%
CC1(C)SC2C(NC(=O)Cc3ccccc3)C(=O)N2C1C(=O)O (stereo unspecified)
→ /, /, /, /, /, -4%
CN(C)CCC=C1c2ccccc2CCc2ccccc21
→ -29, 1.8%, -15, -3%, -9%, -4%&-4%&-5%&-4%&-6%
Cn1cc(/C=C/c2cc[n+](C)cc2)c2cc(F)ccc21
→ 5, -0.9%, -21, ?, ?, 1%
COc1cc(NC(C)CCCN)c2ncccc2c1 (stereo unspecified)
→ 4, 0.0%, 14, 4%, 1%, -10%&-7%
CC(=O)O[C@H]1C(=O)[C@@]2(C)C([C@H](OC(=O)c3ccccc3)[C@]3(O)C[C@H](OC(=O)[C@H](O)[C@@H](NC(=O)c4ccccc4)c4ccccc4)C(C)=C1C3(C)C)[C@]1(OC(C)=O)CO[C@@H]1C[C@H]2O (stereo partly specified)
→ -5, 0.4%, /, -3%, -33%, -4%
COC1C=CO[C@@]2(C)Oc3c(C)c(O)c4c(O)c(c5c(nc6cc(C)ccn65)c4c3C2=O)NC(=O)/C(C)=C\C=CC(C)C(O)[C@@H](C)C(O)C(C)[C@@H](OC(C)=O)C1C (stereo partly specified)
→ /, /, /, /, /, -2%
CNC[C@H](O)c1ccc(O)c(O)c1
→ -18, ?, 13, -2%, 0%, -2%&-2%&-3%&-6%&-3%&0%
C#C[C@]1(O)CC[C@H]2[C@@H]3CCC4=CC(=O)CC[C@@H]4[C@H]3CC[C@@]21C
→ /, /, -1, 1%, -4%, -3%
CCCn1c(=O)[nH]c(=O)c2[nH]cnc21
→ 3, 2.3%, /, -3%, -2%, -5%&-3%&-2%
CN1CCN(c2c(F)cc3c(=O)c(C(=O)O)cn(CCF)c3c2F)CC1
→ -6, -0.1%, -6, /, /, -1%
NCCCCCN
→ /, /, /, /, /, -8%
Cc1ccc2c(c1)c1c3n2CCNC3CCC1 (stereo unspecified)
→ 4, 0.1%, -7&-8, -3%&-11%, 2%&-1%, -2%&-4%
C=C1/C(=C\C=C2/CCC[C@]3(C)C([C@H](C)CCCC(C)(C)O)CC[C@@H]23)C[C@@H](O)C[C@@H]1O (stereo partly specified)
→ /, /, /, /, /, 1%&-3%
CCC1NC(=O)c2cc(S(N)(=O)=O)c(Cl)cc2N1 (stereo unspecified)
→ 5, 0.7%, -8, 5%, 2%, -3%
NCCc1ccn[nH]1
→ 3, 2.1%, 10, -4%, 3%, -3%&-3%
C#C[C@@]1(O)CC[C@@H]2[C@@H]3CCC4=CC(=O)CC[C@@H]4[C@H]3CC[C@]21C
→ /, /, /, /, /, -3%
Cc1ccc2[nH]cc(/C=C/c3cc[n+](C)cc3)c2c1
→ -4, -0.4%, -27, ?, ?, -5%
OC[C@H]1O[C@@H](O[C@@H]2[C@@H](CO)O[C@@](O)(CO)[C@H]2O)[C@H](O)[C@@H](O)[C@H]1O
→ 11, -0.4%, /, -2%, -1%, -2%
C[C@]12CC[C@@H]3c4ccc(O)cc4CC[C@H]3[C@@H]1CC[C@@H]2O
→ -10, -2.1%, /, -1%, -21%, 0%&0%&3%&-1%&1%&4%
OC[C@H]1O[C@@H](O[C@@H]2[C@@H](CO)O[C@](O)(CO)[C@H]2O)[C@H](O)[C@@H](O)[C@H]1O
→ /, /, 16, /, /, -3%
CCN(CC)CCNC(=O)c1cc(Br)c(N)cc1OC
→ 7, -1.2%, 4, -5%, -1%, -2%&-3%&-3%
CN1CCCN=C1/C=C\c1cccs1
→ /, /, /, /, /, -4%&-4%
CC(C)(C)NC(=O)[C@H]1CC[C@H]2[C@@H]3CC[C@H]4NC(=O)C=C[C@]4(C)[C@H]3CC[C@]12C
→ 0, -0.9%, -26, -2%, -1%, -2%

(cont.)
Order of values – D2 PAM, RXFP1 agonist, RXFP1 antag, Vif-APOBEC3F blk, Vif-A3G inh, GRP78 ERSR act
CN(C)CC/C=C1/c2ccccc2Sc2ccc(Cl)cc21
→ -26&-19, 0.4%&1.0%, -17, -3%&0%, 1%&3%, -5%&-4%&1%
O=C1CCC(C(=O)O)N1 (stereo unspecified)
→ 14, 1.7%, /, -7%, -1%, -1%
CC(=O)NC[C@@H]1CN(c2ccc(N3CCOCC3)c(F)c2)C(=O)O1
→ /, /, /, /, /, -4%
Nc1ncnc2c1ncn2[C@@H]1O[C@H](CO)[C@@H](O)[C@H]1O
→ 0, 26%, 2, 2%, -10%, 1%&-4%&1%&-3%
OCC(O)CO
→ /, /, /, /, /, -3%
COc1ccc2c(c1OC)C(=O)OC2C1c2c(cc3c(c2OC)OCO3)CCN1C (stereo unspecified)
→ -7&6&11, 5.0%&-0.3%&1.9%, /, 1%&-14%&-4%, ?, -2%&-2%&0%
CC12C=CC(=O)C=C1CCC1C2C(=O)CC2(C)C1CCC2(O)C(=O)CO (stereo unspecified)
→ /, /, /, 1%, -1%, -3%
NS(=O)(=O)c1cc2c(cc1C(F)(F)F)NCNS2(=O)=O
→ -10, -0.2%, 24, 5%, 2%, -1%&-4%&1%
Nc1ccc(S(=O)(=O)c2ccc(N)cc2)cc1
→ -4, -0.7%, -1, 5%, -1%, -3%&-5%&-5%&-3%

Arranged by length of the SMILES (smallest number first): some entries from above
Order of values – D2 PAM, RXFP1 agonist, RXFP1 antag, Vif-APOBEC3F blk, Vif-A3G inh, GRP78 ERSR act
O=C1CCC(C(=O)O)N1 (stereo unspecified)
→ 14, 1.7%, /, -7%, -1%, -1%
NS(=O)(=O)c1cc2c(cc1C(F)(F)F)NCNS2(=O)=O
→ -10, -0.2%, 24, 5%, 2%, -1%&-4%&1%
CC(=O)NC[C@@H]1CN(c2ccc(N3CCOCC3)c(F)c2)C(=O)O1
→ /, /, /, /, /, -4%

Source: PubChem BioAssay

The list is partial; the hit share may differ from the screen's.
